KCNQ2 pot: potentiators of rat KCNQ2 potassium channel; O88943; 310,000 compounds, 0.54% hits; AID 2239; B-score at 10 µM; CHO-K1 KCNQ2, FluxOR thallium flux fluorescence; hits give high values;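 active = fluorescence ratio B-score at least 3 SD of library B-scores, with initial fluorescence B-score within 3 SD, cut at about 5.3 in these data; same plate scores as AID 2156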;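 note: B-score of peak minus minimum over baseline fluorescence ratio after K+ and Tl+ stimulus; positive B-score means potentiation of KCNQ2 with more thallium influx and brighter signal; only the inactives scoring about 0 or higher are listed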
Target sequence (O88943 whole entry, looked up): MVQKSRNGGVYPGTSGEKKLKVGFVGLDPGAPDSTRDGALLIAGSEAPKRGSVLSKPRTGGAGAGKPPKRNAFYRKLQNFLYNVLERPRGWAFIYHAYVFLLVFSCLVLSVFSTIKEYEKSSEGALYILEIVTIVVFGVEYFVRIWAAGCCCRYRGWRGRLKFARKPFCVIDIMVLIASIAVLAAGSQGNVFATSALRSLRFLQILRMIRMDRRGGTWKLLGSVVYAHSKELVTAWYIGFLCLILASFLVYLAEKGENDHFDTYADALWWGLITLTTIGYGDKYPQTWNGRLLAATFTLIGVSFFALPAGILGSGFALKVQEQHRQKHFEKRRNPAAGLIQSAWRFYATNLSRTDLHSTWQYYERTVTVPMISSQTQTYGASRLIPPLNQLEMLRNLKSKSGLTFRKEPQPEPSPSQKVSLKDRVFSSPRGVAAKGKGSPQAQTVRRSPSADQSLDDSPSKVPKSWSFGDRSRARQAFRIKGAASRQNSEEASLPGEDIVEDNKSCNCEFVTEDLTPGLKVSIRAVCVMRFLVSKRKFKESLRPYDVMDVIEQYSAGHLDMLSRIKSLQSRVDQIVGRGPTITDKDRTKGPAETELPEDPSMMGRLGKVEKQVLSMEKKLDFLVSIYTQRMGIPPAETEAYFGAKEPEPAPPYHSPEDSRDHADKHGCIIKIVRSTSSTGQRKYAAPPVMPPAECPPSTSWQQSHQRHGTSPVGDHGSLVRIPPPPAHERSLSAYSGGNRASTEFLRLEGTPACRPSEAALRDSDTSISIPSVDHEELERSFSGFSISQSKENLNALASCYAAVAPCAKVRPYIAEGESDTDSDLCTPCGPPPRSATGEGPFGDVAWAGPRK
KCNQ2 pot baseline: also measured in KCNQ2 pot; calls as there; B-score; compound at 10 µM; measured here: initial fluorescence intensity artifact check;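 brightness before thallium and not channel activity; 0 = typical well and far values either way flag optical interference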
* marks the source's active call; other numbers are inactive results. The list is partial; rates above refer to the full screens.

SMILES | KCNQ2 pot | KCNQ2 pot baseline
COc1cc(OC)c(OC)cc1CN(C)CC1CCCN(CCc2ccccc2F)C1 (stereo not given) | 0.01 | 0.47
C/C(=N\N=C(N)N)c1cccc([N+](=O)[O-])c1 | 2.1 | -1.3
C/C(=N\NC(=O)CC1N=C(Cc2ccccc2)NNC1=O)c1ccncc1 (stereo not given) | 0.74 | -0.6
CN(Cc1ccccc1)S(=O)(=O)c1ccc(Cl)c(C(=O)O)c1 | 0.23 | -0.65
O=C(NCc1cccc(C(F)(F)F)c1)c1ccc2c(c1)OCO2 | 3.7 | 0.17
O=C(O)c1ccc(S(=O)(=O)N2CCc3ccccc3C2)cc1 | 1.4 | -0.44
CCCCOc1ccc(C(=O)N=c2sccn2C)cc1OC | 0.41 | 0.92
Cc1occc1C(=O)Nc1ccc(Br)cc1F | 1.8 | 1.6
Cn1cc(C(=O)N2CCc3ccccc3C2)c(=O)c2cc(S(=O)(=O)N3CCOCC3)ccc21 | 0.04 | -1.5
Cn1c(-c2cc(Br)ccc2O)n[nH]c1=S | 0.63 | -1.9
O=C(Nc1nccs1)c1csc2c1CCCC2 | 0.91 | -0.27
Cc1cc(=S)cc(C)n1CCCO | 1.1 | -2.1
COc1ccc(-c2noc(CCCC(=O)NC3CCCC3)n2)cc1OC | 0.04 | -0.04
O=C(N[C@@H](Cc1ccc(O)cc1)C(=O)O)C(c1ccccc1)c1ccccc1 | 0.68 | -0.01
CCCc1ccc2oc(C(=O)N(Cc3nccn3C)C(C)C)c(C)c2c1 | 0.78 | 1.6
CCOc1cc(C(=O)OCC(=O)c2cc(C)n(CC3CCCO3)c2C)ccc1OCC(=O)N1CCOCC1 (stereo not given) | 1.4 | -0.43
O=C1NC[C@H](CC2CCCCC2)N(CC2CCCCC2)C1=O | 0.72 | -0.79
CCC(CC)C(=O)Nc1ccccc1NC(C)=O | 1.6 | 0.08
COc1ccccc1NC(=O)CSc1ccc2nnc(-c3cccnc3)n2n1 | 0.25 | -2.1
CC1(C)Cc2ccccc2C(C(Cc2ccccc2)C(N)=O)=N1 (stereo not given) | 0.65 | 0.87
O=C(NCCc1c[nH]c2ccccc12)Nc1ccccc1 | 0.81 | 0.59
O=c1[nH]nc(CSCc2ccccc2Cl)[nH]1 | 1 | 0.12
c1ccc(-c2nnc(CN3CCC4(CC3)OCCO4)o2)cc1 | 0.17 | -0.21
Cc1cc(C)nc(N2CCC(C(=O)Nc3ccc4c(c3)OCO4)CC2)n1 | 3.2 | -0.68
CCC(=O)Nc1sc2c(c1C(=O)N(C)C)CCCCC2 | 1.6 | -1.5

Next results follow.
SMILES | KCNQ2 pot | KCNQ2 pot baseline
CCc1c(C)sc(NC(=O)CCc2ccc(OC)cc2)c1C(N)=O | 0.97 | 0.92
Cc1noc(C(=O)Nc2cccc(O)c2)c1Cl | 0.26 | -0.01
O=C(Cc1ccc(Br)cc1)N1CCCCCC1 | 0.04 | 0
Cc1nc2ccccc2nc1N/N=C/c1ccc(O)cc1O | 1.6 | 0.23
CCC(=O)N1CCc2cc(S(=O)(=O)N(C)c3ccc(OC)cc3OC)ccc21 | 0.45 | -0.6
O=S(=O)(Cc1nc2ccccc2s1)c1ccccc1 | 0.41 | 0.01
O=C(COC(=O)c1cc([N+](=O)[O-])ccc1N1CCOCC1)c1ccccc1 | 1.5 | 1.3
COc1ccc(CC(=O)NCCc2ccc(Cl)cc2Cl)cc1 | 0.57 | -0.08
Cc1cccc(-n2c(SCC(=O)Nc3cccc(S(=O)(=O)NC4=NCCCCC4)c3)nc3ccccc3c2=O)c1C | 0.82 | 0.38
S=c1nc[nH]c2c1cnn2Cc1ccccc1 | 1.7 | 2.6
CC(=O)Nc1cccc(OCCCNS(=O)(=O)c2ccc(F)cc2)c1 | 0.05 | 2.3
CCOC(=O)Nc1cc(NC(=O)OCC)c(C)nc1C | 0.52 | -0.05
CCOc1ccc(NC(=S)NC(=O)/C=C/c2ccc(C)cc2)c([N+](=O)[O-])c1 | 1.3 | 0.16
COc1ccc(C(=O)Nc2nnc(Cc3cccs3)s2)cc1OC | 1.3 | 1.1
Cc1cc(S(=O)(=O)N2CCN(c3ccccn3)CC2)ccc1F | 0.77 | 1.9
Cc1ccc(F)c(NC(=O)C2CCCCC2C(=O)O)c1 (stereo not given) | 0.41 | -1.5
Cc1cccc(C(=O)Oc2c(Br)cc(Br)cc2/C=N/NC(=O)c2ccncc2)c1 | 0.63 | 1.5
C=CCn1c2ccccc2c2nn(C)c(=S)nc21 | 0.88 | -0.75
CC(C)(C)c1ccc(C(=O)CSc2n[nH]c(=O)[nH]c2=O)cc1 | 1.1 | -0.68
CCOC(=O)Cn1c(=O)n(CC(=O)OCC)c2ccccc21 | 1.5 | 0.11
S=c1[nH]nc(-c2cc(-c3ccco3)[nH]n2)n1-c1ccccc1Cl | 2.9 | -0.73
CC(OC(=O)CN(C)S(=O)(=O)c1ccc(Cl)cc1)C(=O)Nc1ccc(N2CCOCC2)cc1 (stereo not given) | 0.22 | 0.45
c1ccc2c(c1)OCCc1c-2[nH]c2ccccc12 | 1.1 | 1.3
O=c1c2ccccc2nc2n1C(CSCc1ccc(Cl)cc1)CS2 (stereo not given) | 1.5 | 1
Cc1ccc(S(=O)(=O)N2CCC(=O)N(CCOC(=O)Nc3ccccc3C)CC2)cc1 | 0.38 | 0.76

Next part
SMILES | KCNQ2 pot | KCNQ2 pot baseline
Cc1ccc(N2C(=O)Nc3cc(Cl)c(Cl)cc3N2O)cc1Cl | 0.87 | -2.6
Cc1nc2sc(C(c3ccc(Cl)cc3)N3CCN(CCO)CC3)c(O)n2n1 (stereo not given) | 0.05 | -1.7
Cc1ccc(N2CCN(C(=O)N3CCOCC3)CC2)cc1C | 0.39 | -1.2
Cc1cc(C(=O)NCC2CCCO2)n(-c2ccccc2)n1 (stereo not given) | 1.3 | -1.2
COc1cc(C=O)ccc1OCCOc1ccccc1[N+](=O)[O-] | 0.21 | -0.5
CCCC(=O)NC(Nc1ccc(S(=O)(=O)Nc2cc(C)on2)cc1)(C(=O)OCC)C(F)(F)F (stereo not given) | 1 | -1.1
O=C(NCc1cn(-c2ccccc2)nc1-c1ccccc1)c1ccc([N+](=O)[O-])cc1 | 0.03 | -0.78
C/C(Cn1nc([N+](=O)[O-])cc1C)=N\NC(=O)COc1ccccc1[N+](=O)[O-] | 0.01 | 0.15
CC12CCC(C/C1=N\N=C1\NC(=O)/C(=C\c3ccc(Cl)cc3)S1)C2(C)C (stereo not given) | 13* | -1.6*
COc1cc2cc(C(=O)N/N=C/c3ccccc3Cl)[nH]c2cc1OC | 1.8 | -0.1
N=c1oc2ccc(Br)cc2cc1C(=O)NCc1ccccc1 | 0.06 | 0.79
O=C(NCc1ccccn1)C1CCCN(S(=O)(=O)c2cccc3nsnc23)C1 (stereo not given) | 0.31 | -0.63
CC1=CC2=NC(=O)/C(=C\c3cc(C)n(-c4ccccc4F)c3C)C(=N)N2O1 | 0.48 | -0.03
Cc1ccccc1CSc1nc(C(C)(C)C)cc(=O)[nH]1 | 0.29 | -0.02
N/C(=N\NC(=O)Nc1ccccc1)c1ccccn1 | 1.3 | -0.24
CC1=NC(C(F)(F)F)(C(F)(F)F)C(C#N)=C(C)N1 | 0.17 | -0.02
COc1cnc(-c2ccccc2)nc1OC | 0.16 | 1.5
COc1ccc(NC(=S)N2CCCC2)cc1 | 1.3 | -1.6
O=C(NCC1CCCO1)c1c(O)c2cccc3c2n(c1=O)CCC3 (stereo not given) | 0.23 | 1.2
O=C(/C=C/c1ccccc1)Oc1ccc(C(=S)N2CCOCC2)cc1 | 0.19 | -0.43
NS(=O)(=O)c1ccc(S(=O)(=O)N2CCCC2)cc1 | 0.76 | 0.05
COc1ccc(C(=O)C(CN2CCOCC2)c2ccccc2)cc1 (stereo not given) | 0.05 | 1.2
CN1CCN(c2ccc(Cl)cc2NC(=O)c2ccc(=O)n(C)n2)CC1 | 2.4 | 0.03
Cc1ccc(-c2sc(C)nc2CC(=O)O)cc1 | 0.06 | 1.1
COc1ccc(C(=O)Nc2cccc(S(C)(=O)=O)c2)cc1OC | 0.79 | -0.13

The results go on:
SMILES | KCNQ2 pot | KCNQ2 pot baseline
Cc1ccc(-c2c(C)n([O-])c3c([n+]2=O)CCCC3)cc1 | 0.09 | -0.97
CN(C(=O)CSc1nncn1C)C1CCCN(Cc2ccccc2F)C1 (stereo not given) | 0.97 | 2.2
COc1ccc(CN2CCC(n3nccc3NC(=O)CCCc3ccccc3)CC2)cc1C | 1.4 | -0.86
CCCCCCC(=O)Nc1cc2c(C)cc(=O)oc2cc1C | 0.47 | -0.01
O=C(O)CC1COc2ccccc2N1S(=O)(=O)c1ccc(Br)cc1 (stereo not given) | 1.2 | -0.05
COc1ccc(CC(NC(C)=O)C(=O)NC2CCN(S(=O)(=O)c3cccc4ccccc34)CC2)cc1OC (stereo not given) | 0.32 | 0.46
COc1ccc(NC(=O)c2cnc(C)cn2)c2ncccc12 | 0.43 | -0.01
Cc1ccc(C(=O)c2c3ccc(C(F)(F)F)cc3[n+]([O-])n2CCC(N)=O)cc1 | 0.98 | 0.54
Cc1nc(C(F)(F)F)ccc1C(=O)N1CCCCC1 | 0.2 | -3.1
CCn1c(CSc2ncccn2)nnc1SCC(=O)N1CCCCC1 | 0.77 | 0.83
COc1ccc(NC(=O)CCNS(=O)(=O)c2cccc3nonc23)cc1Cl | 0.15 | -1.6
O=C(N/N=C/c1ccc(Cl)c(Cl)c1)c1ccc2nc[nH]c2c1 | 1.1 | 0.21
c1ccc2c(c1)nc1n2CCN1CCN1CCCC1 | 0.67 | -0.55
COc1ccc(CONc2ncnc3nonc23)cc1[N+](=O)[O-] | 0.98 | 2.5
Cc1ccc(S(=O)(=O)NCc2cccnc2)c(C)c1 | 1.2 | 2.8
O=C(N/N=C/c1cccnc1)c1ccc(NC(=O)C(c2ccccc2)c2ccccc2)cc1 | 0.72 | -0.5
Cc1cccc(Nc2nc(N)nc(CSc3nccn3C)n2)c1 | 1.4 | -2.7
COc1ccc(Cl)cc1NC(=O)[C@@]1(CC(=O)O)CC(/C=C/c2ccccc2)=NO1 | 1.4 | 0.62
Oc1ccccc1-c1n[nH]c(=S)n1Cc1ccco1 | 1.2 | -0.79
CCOC(=O)C1CCN(C(=O)CCc2nc3sc4c(c3c(=O)[nH]2)CCCC4)CC1 | 0.13 | 0.05
Cc1ccc(NC(=O)c2cccc(S(=O)(=O)N3CCc4ccccc4C3)c2)nc1 | 0.83 | -1.5
O=c1oc2ccccc2cc1NCc1ccccc1O | 0.04 | 1.8
O=C(N/N=C/c1ccco1)c1ccc(Br)o1 | 0.31 | -0.07
CCOC(=O)N1CCC(=NNc2nc3ccccc3s2)CC1 | 1.4 | -1.9
Cc1ccc(NC(=O)c2ccc3nc[nH]c3c2)nc1 | 0.33 | -0.89

Later entries
SMILES | KCNQ2 pot | KCNQ2 pot baseline
COc1ccc(NC(=O)C2CCCN2C(=O)OCc2ccccc2)cc1 (stereo not given) | 1.2 | 0.93
COc1ccc(CNC(=O)C(c2cccc(C)c2)N(C(=O)c2csnn2)C2CC2)cc1 (stereo not given) | 0.12 | 0.11
CC(C)CCNC(=O)C(c1ccc(O)cc1)N(Cc1ccco1)C(=O)CCC(=O)Nc1nccs1 (stereo not given) | 1.3 | -0.45
Cc1c(Cl)ccc(S(=O)(=O)Nc2cccnc2)c1Cl | 0.98 | -0.81
O=C(Nc1ccccc1N1CCCC1)C1CC(=O)N(Cc2ccccc2)C1 (stereo not given) | 0.66 | -0.04
O=C(CSc1ncccc1C(=O)O)c1cccc(C(F)(F)F)c1 | 1.1 | 0.73
C=CCn1c(=N)n(CC(=O)c2ccc(Br)s2)c2ccccc21 | 0.15 | -0.08
COc1ccc(-c2nc3n(c(=O)c2C#N)CCS3)cc1OC | 0.02 | 0.74
CC(C)C(c1nnnn1C1CCCC1)N(C)C1CCCCC1 (stereo not given) | 1 | -2.8
CSc1ccccc1C(=O)NCc1ccccc1 | 2.3 | -0.45
CC(=O)Nc1ccc(/C=N/Nc2nc3ccccc3s2)cc1 | 0.05 | 0.14
O=C(O)C[C@H]1c2ccccc2S(=O)(=O)N1C1CCCCC1 | 1.1 | -0.22
O=C(Nc1ccncc1)Nc1cccc(Cl)c1 | 0.65 | 0.25
O=C(COc1ccc(Br)cc1Cl)NCCCN1CCOCC1 | 0.14 | -0.3
COC(=O)C1(NC(=O)NC23CC4CC(CC(C4)C2)C3)CCCCC1 | 0.06 | -0.59
Cc1cc(=O)oc2ccc(OCC(=O)N3CCC(C)CC3)cc12 | 1.2 | -0.02
Cc1ccccc1OCCCCCNCCO | 0.89 | -1.9
COc1ccccc1N(CC(=O)N/N=C/c1ccccc1C(=O)O)S(C)(=O)=O | 0.5 | -1.5
CCOc1ccc(N=C2SCCCN2C(=O)c2c(CC)noc2C)cc1 | 0.35 | -0.1
Cc1nnc(SCc2cn3ccsc3n2)n(N)c1=O | 0.01 | 0.81
